MLL AF4-AF9 inh: blocks AF4 peptide binding to human AF9 | AID 651704 | actives 0.47% (n = 350,000) | AlphaScreen, biotin-AF4 peptide binding to FLAG-AF9 | inhibition, % at 10 µM;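 active = every replicate reaching a set inhibition limit, whatever the replicate mean, cut at about 25% in these data; inconclusive = mean inhibition reaches that limit but some replicates miss it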;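 note: 0% = plate neutral control median and 100% = total signal loss; the record names both 10 and 1 µM as test concentration; the first replicate is given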
Target sequence (P42568 whole entry, looked up): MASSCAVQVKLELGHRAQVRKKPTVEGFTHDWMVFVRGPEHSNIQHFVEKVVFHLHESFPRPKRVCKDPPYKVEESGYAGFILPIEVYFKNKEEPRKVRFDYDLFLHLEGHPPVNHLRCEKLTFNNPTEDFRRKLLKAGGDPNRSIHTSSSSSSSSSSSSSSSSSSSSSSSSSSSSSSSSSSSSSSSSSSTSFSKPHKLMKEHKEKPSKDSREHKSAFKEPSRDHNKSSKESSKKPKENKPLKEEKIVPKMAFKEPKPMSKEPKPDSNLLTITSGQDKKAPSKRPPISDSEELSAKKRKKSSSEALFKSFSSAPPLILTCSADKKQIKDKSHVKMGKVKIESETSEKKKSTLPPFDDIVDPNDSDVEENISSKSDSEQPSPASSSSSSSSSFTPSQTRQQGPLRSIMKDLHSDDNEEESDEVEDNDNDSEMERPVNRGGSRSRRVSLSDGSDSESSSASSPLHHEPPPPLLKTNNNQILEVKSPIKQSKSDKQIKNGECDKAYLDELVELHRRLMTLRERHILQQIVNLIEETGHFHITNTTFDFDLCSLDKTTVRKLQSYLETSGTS
ALR inh: blocks human ALR sulfhydryl oxidase activity; P55789; inhibition, % (concentration not given with the values); actives 3.8% (n = 290,000); AID 485317; purified ALR, DTT oxidation, H2O2 HRP-luminol luminescence;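 active = mean and each replicate at 75% or more; inconclusive = only one of the two met; inactive = neither met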;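 note: stock transfer was 7.5 nL into about 7.5 µL; 0% = neutral wells and 100% = wells with inactivated enzyme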
Target sequence (P55789 whole entry, looked up): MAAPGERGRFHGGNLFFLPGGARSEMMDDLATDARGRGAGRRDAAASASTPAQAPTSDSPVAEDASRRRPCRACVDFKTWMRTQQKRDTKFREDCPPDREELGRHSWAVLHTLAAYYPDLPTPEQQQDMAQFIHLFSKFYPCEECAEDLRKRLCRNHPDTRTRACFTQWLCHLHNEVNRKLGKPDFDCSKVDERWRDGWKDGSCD
Calb FLC: C. albicans growth modulation with fluconazole; C. albicans CaCi-2 (fluconazole-resistant clinical isolate) + fluconazole, Alamar Blue growth, 48 h; AID 1979; growth inhibition, % (no concentration beside the values); actives 0.57% (n = 300,000);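 active = most replicates above 75%; inconclusive = exactly half above 75%; inactive = most below 75%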;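 note: all wells also contain fluconazole at 8 µg/ml as a sub-toxic cotreatment; 0% = median of DMSO wells and 100% = median of geldanamycin control wells; wells of about 8 µL received 7.5 nL stock; the first replicate is given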
RanGTP-Impb inh: inhibitors of RanGTP-importin-beta interaction, primary screen, biochemical, FRET, CFP-Ran, YFP-importin-beta, homogeneous; AID 2216; inhibition, % (concentration not given with the values); actives 1.1% (n = 300,000); cell-free CFP-Ran/YFP-importin-beta FRET ratio;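 active = most replicates above 15%; inconclusive = exactly half above 15%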;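 note: 0% = DMSO wells and 100% = Ran loaded with GDP instead of GTP; wells of about 40 µL received 100 nL stock; the first replicate is given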
T cruzi repl: blocks replication of Trypanosoma cruzi | T. cruzi beta-gal in NIH3T3, luminescence, 90 h | inhibition, % (test concentration not listed) | actives 1.4% (n = 300,000);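 active = mean inhibition across valid replicates above about 55%, limit read from the data; inconclusive = mean below that limit but half or more replicates reach it; inactive = mean below it, under half of replicates reach it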;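 note: signal also drops with host cell toxicity which is not excluded here; 0% = plate median of DMSO wells and 100% = zero luminescence signal; higher percent means less beta-gal luminescence so fewer parasites; stock transfer was 50 nL into about 50 µL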
Beta cell apopt: blocks beta cell apoptosis | INS-1E cytokine-induced death, ATP luminescence, 48 h; percent of positive-control rescue, neutral wells zero | protection from apoptosis, % (no concentration beside the values) | actives 0.8% (n = 300,000);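 active = all replicates at 75% or more, or half of them and the mean; inconclusive = half reach 75% but not the mean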;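 note: 0% = cytokine-treated negative control wells and 100% = positive control rescue; higher means more ATP so stronger rescue from cytokine killing; wells of about 40 µL received 100 nL stock; the first replicate is given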
rRNA inh HTS: selective bacterial rRNA inhibition in E. coli. E. coli WT GFP vs humanized-ribosome RFP mutants, fluorescence, 24 h; stronger effect = lower value; DMSO median 0, no signal -100. GFP signal change (wild-type ribosome), % (test concentration not listed). actives 1.6% (n = 350,000). AID 720706;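 active = significant combined selectivity score with lowered wild-type GFP, culture density cut under 30%, mutant RFP and density less affected; inactive = any of these conditions unmet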; note: one replicate is shown; some compounds called inactive have numbers as strong as hits
FGF22 binding: FGF22 (human) thermal shift binding; actives 1.5% (n = 340,000); AID 651658; calls only at 9.99 µM; recombinant FGF22 thermal shift, SYPRO orange fluorescence; percent of sucrose octasulfate shift, DMSO zero; Q9HCT0;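 active = melting point raised past a set limit in the mean and every replicate; inconclusive = no clear call; three in four hits are not shown here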
Target sequence (Q9HCT0 whole entry, looked up): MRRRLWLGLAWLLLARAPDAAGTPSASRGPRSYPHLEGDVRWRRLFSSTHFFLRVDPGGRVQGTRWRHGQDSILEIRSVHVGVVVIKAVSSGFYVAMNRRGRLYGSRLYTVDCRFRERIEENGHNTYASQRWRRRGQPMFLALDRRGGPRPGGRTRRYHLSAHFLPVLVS
rRNA inh HTS OD600: recorded beside rRNA inh HTS, whose call it bears; OD600 change, %; measured here: OD600 growth;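 optical density of the mix in the first replicate; 0 = DMSO median and -100 = no signal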
rRNA inh HTS RFP: second read-out of rRNA inh HTS, no call of its own (marks repeat the call); RFP signal change, %; measured here: RFP humanized mutant strains;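 first replicate; 0 = DMSO median and -100 = no signal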
* marks the source's active call; other numbers are inactive results; i = inactive; ? = inconclusive; . = no result given.

The line under a structure holds: MLL AF4-AF9 inh	ALR inh	Calb FLC	RanGTP-Impb inh	T cruzi repl	Beta cell apopt	rRNA inh HTS	rRNA inh HTS OD600	rRNA inh HTS RFP	FGF22 binding
> CCN(CC)CCCNc1cc(C(F)(F)F)c(C#N)c2nc3ccccc3n12
    -6.4	25	1	117*	40	3	-5	3	0.7	i
> Nc1cc(=O)[nH]c(SCc2nnc(-c3ccccc3)o2)n1
    .	.	7	8.2	-10	2	.	.	.	.
> COc1ccc(O)c(C2=Nc3ccccc3N=C(c3ccccc3)C2)c1
    -3.0	1	10	0.8	14	8	-4	6	5.7	i
> Cc1ccc(Nc2nc(CSc3nnc(-c4cccnc4)n3-c3ccccc3C)cs2)cc1
    4.7	20	-6	-1.9	12	-4	-18	-19	16	i
> Cc1ccc(S(=O)(=O)/C(C#N)=C/c2c(N3CCN(C)CC3)nc3c(C)cccn3c2=O)cc1
    .	.	-7	-55	20	-1	.	.	.	.
> COc1ccccc1C1=NNC(=NCc2ccccc2)SC1
    2.2	-13	-40	6.5	-5	-4	-5	-4	3.2	i
> Cc1ccc(C(=O)NNC(=O)CSc2nnc3c(n2)[nH]c2ccc(C)cc23)cc1
    .	-6	-9	-2.8	4	.	.	.	.	.
> Cc1ccc(F)cc1NC(=S)NCCc1ccccc1
    .	0	-25	1.6	5	-8	.	.	.	.
> CN(C(=O)Cn1cc(C#N)c2ccccc21)c1ccccc1
    -1.7	-2	-10	-0.1	4	3	7	0	-1.3	i
> Cn1ncc(Br)c1C(=O)Nc1ccc(Br)cn1
    0.7	-20	-6	5.3	-8	3	5	16	2.9	i
> CCn1c(COc2ccc(=O)n(-c3ccccc3)n2)nnc1SCc1ccc(OC)cc1
    .	-16	45	3.3	16	-2	.	.	.	.
> O=c1[nH]c2cc3c(cc2cc1CN(CCCO)C(=S)NCc1ccco1)OCO3
    0.0	-36	9	-3.3	-4	-5	12	10	10	i
> COc1ccc(C(=O)Nc2cc3c4c(c2)C(C)C(=O)N4CCC3)c(OC)c1 (stereo not drawn)
    3.4	14	10	3.0	-6	-6	-6	-12	0.6	i
> COc1ccc(-c2nnc(SC(C)C(=O)Nc3cccc(Cl)c3)o2)cc1 (stereo not drawn)
    .	-13	-1	1.6	14	-2	.	.	.	.
> CCOc1ccccc1NS(=O)(=O)c1ccc2oc(=O)ccc2c1
    4.5	1	3	0.7	-3	-3	-3	-9	-0.8	i
> Cc1ccc(NC(=O)CSc2ccc(-c3cccnc3)nn2)cc1Cl
    -2.7	-15	-4	?	-10	-2	6	-1	-0.6	i
> Cc1cccc(C(=O)NCC(=O)OCC(=O)N2CCCCC2)c1
    -0.8	4	-8	1.0	-10	-11	12	6	-2.9	i
> COc1ccccc1C/C(N)=N/OC(=O)c1cccc([N+](=O)[O-])c1C
    -2.9	.	-6	0.2	21	12	-1	1	-4.9	i
> COCCCNS(=O)(=O)c1ccccc1
    .	3	-3	0.3	-2	-2	.	.	.	.
> CC(=O)NCCc1nc2cc(NC(=O)c3cccs3)ccc2n1C
    -0.7	-6	5	2.3	-11	.	14	11	0.2	i
> COC(=O)c1cnc(Nc2cccc(C(F)(F)F)c2)c([N+](=O)[O-])c1
    2.3	-8	13	-2.9	9	5	.	.	.	i
> Cc1c(NC(=O)/C(C#N)=C/c2c(Oc3ccccc3)nc3ccccn3c2=O)c(=O)n(-c2ccccc2)n1C
    .	.	4	8.4	-20	-7	.	.	.	.
> COc1ccc(Cc2nnc(SCC(=O)Nc3ccc(N4CCOCC4)cc3)o2)cc1
    0.7	9	3	23	5	2	-3	-3	5.3	i
> CCOc1ccc2nc(NC(=O)CN3CCN(CC)CC3)sc2c1
    4.9	-15	4	?	19	.	-3	4	-0.4	i
> CC1(C)CC(=O)C2=C(C1)NC(Nc1nc3ccccc3o1)=NC21CCCCC1
    .	-5	?	-2.9	-1	11	.	.	.	.
> O=C1CCC/C1=c1\s/c(=C\c2cccnc2)c(=O)n1-c1ccccc1
    .	-1	3	3.1	23	-5	.	.	.	.
> CC(NC(=O)c1nn(C)c(=O)c2ccccc12)c1ccccc1 (stereo not drawn)
    .	-3	-10	-6.2	-9	-6	.	.	.	.
> CC(=O)Nc1ccc(S(=O)(=O)N2CC(=O)NC(=O)C2)cc1
    -1.3	-6	-6	-3.4	-11	-5	24	24	1.7	i
> CCCCCOC(=O)c1ccc(NC(=O)c2cccc(NC(=O)c3ccccc3C(=O)O)c2)cc1
    0.1	.	0	9.4	-11	1	-49	-68	7.2	i
> Cc1ccc2c(c1)nnn2C1CCN(C(=O)c2ccccc2F)CC1
    -1.8	-14	22	.	0	-1	6	7	-3.6	i
> Fc1ccc(NC(=S)N2CCOCC2)cc1Cl
    -0.2	.	?	?	-17	-4	-28	-23	-7.5	i
> CCOc1ccc2nc(NC(=O)c3ccc(OC)c(S(=O)(=O)N4CCOCC4)c3)sc2c1
    .	-8	29	2.7	30	-2	.	.	.	.
> CS(=O)(=O)N(CC(=O)N1CCN(c2ccc(F)cc2)CC1)c1cccc(Cl)c1
    .	27	11	?	-4	1	.	.	.	.
> O=C1NC2(CCCCCC2)C(=O)N1Cc1ccccc1F
    0.0	.	2	4.8	-9	.	11	10	1.7	i
> Cc1ccc(CSc2nnc(SCC(=O)N/N=C/c3ccccc3OCC(=O)O)s2)cc1
    -4.5	.	1	3.0	-2	-3	6	7	-0.7	i
> CNCCCCOc1ccccc1Cc1ccccc1
    .	6	-38	0.4	13	4	.	.	.	.
> CC(=O)c1c(C)[nH]c(C(=O)OC2CCCCC2=O)c1C (stereo not drawn)
    .	5	7	3.6	-8	0	.	.	.	.
> Cc1cc(C)n(CC(=O)NNC(=O)c2ccc(NC(=O)CC#N)cc2)n1
    7.8	-1	.	.	.	0	5	15	-3.0	i
> Cc1cccc(C(C)C)c1NC(=O)C1CCN(S(=O)(=O)c2ccccc2)CC1
    -3.1	12	-2	4.2	12	5	10	3	0.5	i
> Cc1cccc(CC(=O)c2c[nH]c3ccccc23)c1
    -2.9	-3	1	-0.4	0	-6	-15	-8	-3.3	i
> CC(C)CCn1cnc2c1c(=O)n(CC(=O)NC(N)=O)c(=O)n2Cc1ccccc1
    -11	-6	2	1.6	-8	2	8	11	0.6	i
> O=C(CN1C(=O)S/C(=C\c2ccccn2)C1=O)Nc1ccccc1
    3.2	-13	109*	.	.	0	7	9	-3.2	i
> Cc1ccc(OC(C)C(=O)N=Nc2c(O)[nH]c3ccc([N+](=O)[O-])cc23)cc1 (stereo not drawn)
    .	-2	39	-3.1	-3	-1	.	.	.	.
> CCOc1cc(C)c(S(=O)(=O)N2CCCCC2)cc1C
    -3.5	0	-25	2.6	4	-3	-8	-14	-3.2	i
> CC(C)NS(=O)(=O)c1ccc(OCC(=O)NC2CCCCCC2)cc1
    -1.5	0	11	-1.2	1	-3	6	1	4.5	i
> Cc1[nH]c(=O)[nH]c(=O)c1N(C)C
    0.3	18	-9	-0.7	-27	-2	6	9	-1.6	i
> CCOC(=O)C(CCCCCCC(NC(C)=O)(C(=O)OCC)C(=O)OCC)(NC(C)=O)C(=O)OCC
    .	-4	-6	1.9	8	.	26	9	3.5	i
> CC(C)SCCCCOc1ccc2ccccc2c1
    .	-12	-5	3.1	1	9	.	.	.	.
> O=C(CCSc1ccccc1)Nc1ccc(S(=O)(=O)Nc2ncccn2)cc1
    -3.6	0	-16	0.4	-16	-3	17	9	1.4	i
> O=C(O)CC(c1ccc(F)cc1F)N1Cc2ccccc2C1=O (stereo not drawn)
    .	.	-5	-0.1	-10	1	.	.	.	.
> CCN(CC)S(=O)(=O)c1ccc(N2Cc3ccccc3C2=N)cc1
    2.6	2	-2	-0.6	-1	-7	-2	1	-2.6	i
> COc1ccc(CCNC(=O)COc2ncnc3ccccc23)cc1OC
    -0.5	-1	0	11	-5	0	-19	-15	0.6	i
> O=C1CN(C(=O)NCCC(=O)NC2CCCCC2)c2ccccc2N1
    -1.9	-3	-4	-2.8	-1	-8	3	15	-0.5	i
> Nc1ccccc1NC(=O)NC(=O)c1ccccc1
    -5.4	-21	-3	2.4	-9	1	4	12	1.8	i
> Cc1ccc(Cn2c(CN3CCOCC3)nc3c2c(=O)n(C)c(=O)n3C)cc1
    .	8	2	?	4	7	.	.	.	.
> O=C(O)Cn1c(-c2cscn2)nc2ccccc21
    .	-19	1	3.4	-15	-11	.	.	.	.
> O=C(O)CSc1ncnc2c1oc1ccccc12
    .	63	1	-1.9	5	1	.	.	.	.
> COc1cc(C)c(S(=O)(=O)N2CCOCC2)cc1C(C)C
    .	2	-1	-0.8	3	-9	.	.	.	.
> CC(=O)c1ccc(S(=O)(=O)NC2CC(=O)N(c3cccc(F)c3)C2)cc1 (stereo not drawn)
    -2.3	-2	4	?	-8	3	5	7	-4.5	i
> Cc1ccc(C(=O)O)cc1NC(=S)NC(=O)c1ccc(-c2ccc(Cl)cc2)o1
    5.0	15	0	-1.0	5	-5	10	3	-3.6	i

Nothing new here: an excerpt of the list.
The line under a structure holds: MLL AF4-AF9 inh	ALR inh	Calb FLC	RanGTP-Impb inh	T cruzi repl	Beta cell apopt	rRNA inh HTS	rRNA inh HTS OD600	rRNA inh HTS RFP	FGF22 binding
> CC(=O)c1ccc(S(=O)(=O)NC2CC(=O)N(c3cccc(F)c3)C2)cc1 (stereo not drawn)
    -2.3	-2	4	?	-8	3	5	7	-4.5	i
> Cc1ccc(C(=O)O)cc1NC(=S)NC(=O)c1ccc(-c2ccc(Cl)cc2)o1
    5.0	15	0	-1.0	5	-5	10	3	-3.6	i

Continued.
The line under a structure holds: MLL AF4-AF9 inh	ALR inh	Calb FLC	RanGTP-Impb inh	T cruzi repl	Beta cell apopt	rRNA inh HTS	rRNA inh HTS OD600	rRNA inh HTS RFP	FGF22 binding
> CC(C)c1ccc(NC2CCCN(C(=O)CCN3CCCC3=O)C2)cc1 (stereo not drawn)
    6.9	78*	-3	3.6	-2	1	5	0	0.5	i
> CC1CCc2sc(C(=O)N/N=C/c3ccc([N+](=O)[O-])cc3)cc2C1 (stereo not drawn)
    .	-3	-4	-4.5	8	-1	.	.	.	.
> Cc1cccc(C2C3=C(CCCC3=O)N=C3c4ccccc4C(=O)C32)c1 (stereo not drawn)
    -2.5	13	1	8.4	7	-6	6	9	0.0	i
> CC1=CN2C(=N)/C(=C/c3cn(CCCOc4ccccc4C)c4ccccc34)C(=O)N=C2S1
    .	31	1	4.2	0	23	.	.	.	.
> O=c1[nH]cccc1-c1nc2ccccc2n1Cc1ccc(Cl)cc1
    3.3	.	1	-0.6	1	-1	-1	-11	0.5	i

A portion of the library (hit frequency here may not be typical).
